Hedgehog: Drosophila hedgehog isoform A inhibitors, primary screen, biochemical, plate reader, single concentration (AID 588832) | 8,000 tested, under 10 active | Biochemical plate reader assay, Hedgehog inhibition; active compounds read high | inhibition, % at 30.3 µM; in the data active = inhibition from about 57%;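 also: 0% = neutral control wells and 100% = positive control wells; cholesterol-driven self-cleavage of fly hedgehog protein by fluorescence polarization; read one hour after cholesterol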
An asterisk follows results filed as active; & = joins results of further samples.

Start of the listing, in advance (5 entries):
For CCCCn1c(NCc2ccccc2O)nc2ccccc21 the results were Hedgehog 8.0.
For O=C(Nc1nc2c(F)cccc2s1)c1ccc([N+](=O)[O-])o1 the results were Hedgehog 11.5.
Screening Cc1[nH]c2ccccc2c1SCC(=O)N1CCN(c2ccccc2)CC1 returned Hedgehog 6.8.
For Cn1c(=O)c2c(nc(N3CCCCCC3)n2CCSc2nc3ccccc3o2)n(C)c1=O the results were Hedgehog 4.4.
Screening CC(=O)CC1(O)C(=O)Nc2ccccc21 (configuration not stated) returned Hedgehog 1.7.

The list itself, from the start:
For CCCCn1c(NCc2ccccc2O)nc2ccccc21 the results were Hedgehog 8.0.
For O=C(Nc1nc2c(F)cccc2s1)c1ccc([N+](=O)[O-])o1 the results were Hedgehog 11.5.
Screening Cc1[nH]c2ccccc2c1SCC(=O)N1CCN(c2ccccc2)CC1 returned Hedgehog 6.8.
For Cn1c(=O)c2c(nc(N3CCCCCC3)n2CCSc2nc3ccccc3o2)n(C)c1=O the results were Hedgehog 4.4.
Screening CC(=O)CC1(O)C(=O)Nc2ccccc21 (configuration not stated) returned Hedgehog 1.7.
Screening Cc1cccc(NC(=O)NC(C)C(c2cccs2)N2CCOCC2)c1 (configuration not stated) returned Hedgehog 8.0.
`COc1ccc(C2=NS(=O)(=O)N(C)C(C(=O)N3C(C)CCCC3C)=C2)cc1` (configuration not stated) gave Hedgehog 5.5.
`Cc1ccc(N(CC(=O)NCc2ccc3c(c2)OCO3)S(=O)(=O)c2c(C)noc2C)cc1` gave Hedgehog 9.7.
O=S(=O)(NCCc1csc(-c2cccnc2)n1)c1ccc2c(c1)OCCO2 was read as Hedgehog 7.7.
Screening O=c1ccc2ccc(O)cc2o1 returned Hedgehog 6.9.
`COc1cc(NC(=O)c2cc(C(C)C)on2)cc(OC)c1OC` gave Hedgehog 7.0.
Screening C[C@H]1COC2=C1C(=O)C(=O)c1c2ccc2c1CCCC2(C)C returned Hedgehog 7.0.
Screening COc1ccccc1-c1nc(C(=O)NCC2CCCO2)cc2c1[nH]c1ccccc12 (configuration not stated) returned Hedgehog 3.5.
For COc1cccc(NC(=O)c2nc3nc(C)cc(C(F)F)n3n2)c1 the results were Hedgehog 4.2.
For Cc1ccc(CNC(=O)[C@@H](NC(=O)C2CCN(C(=O)[C@@H](N)CC(C)C)CC2)C(C)C)cc1 the results were Hedgehog 7.0.
For Cc1ccc(Cn2cc(SCC(=O)Nc3nccs3)c3ccccc32)cc1 the results were Hedgehog 4.4.
Screening COc1ccc(-n2c(SCC(=O)N3CCc4ccccc43)nnc2-c2c[nH]c3ccccc23)cc1 returned Hedgehog 3.4.
Cc1ccc2c(c1)NC(=O)C(CC(=O)NC1CCCCC1C)O2 (configuration not stated) was read as Hedgehog 0.0.
`CC(C)C[C@@H](C(=O)N[C@@H](C(=O)O)c1ccccc1)N1C(=O)N2CCc3c([nH]c4ccccc34)[C@@]2(C)C1=O` gave Hedgehog 6.8.
Screening Cc1cc2c(cc1S(=O)(=O)N(C)Cc1ccccc1)n(C)c(=O)c(=O)n2C returned Hedgehog 16.7.
For COc1ccccc1NC(=O)C1C2C=CC3(CN(Cc4cccnc4)C(=O)C13)O2 (configuration not stated) the results were Hedgehog 9.5.
For Cc1nc2sc(C(c3ccccc3)N3CCN(CCO)CC3)c(O)n2n1 (configuration not stated) the results were Hedgehog 0.0.
Screening COc1ccc(Br)cc1C1CC(=O)N2CN(C)CSC2=C1C#N (configuration not stated) returned Hedgehog 3.6.
For O=C(O)CCCC[C@@H]1SC[C@@H]2NC(=O)N[C@@H]21 the results were Hedgehog 0.0.
COc1ccccc1CNC(=O)C(=O)NCC1OCCN1S(=O)(=O)c1ccc2c(c1)OCCO2 (configuration not stated) was read as Hedgehog 3.5.
For Cc1cc(=O)oc2c3c(cc(OCC(=O)Nc4cccnc4)c12)OC(C)(C)CC3 the results were Hedgehog 3.6.
For CCOC(=O)c1ccc(N=c2sc(C(=O)OC)cc(=O)n2CCCN2CCOCC2)cc1 the results were Hedgehog 6.2&5.1.
Nc1nc(SCC(=O)NCC2CCCO2)[nH]c(=O)c1NC(=O)c1ccco1 (configuration not stated) was read as Hedgehog 7.0.
`COc1ccc(C2C=C(c3ccc(C)c(C)c3)Nc3ncnn32)c(OC)c1OC` (configuration not stated) gave Hedgehog 10.7.
`Cc1ccc(-c2nc(CS(=O)(=O)CC(=O)N3CCCCCC3)c(C)o2)cc1` gave Hedgehog 9.5.
Screening O=C1c2ccccc2C(O)N1Cc1ccccc1Cl (configuration not stated) returned Hedgehog 3.7.
Screening CCOc1ccc(OCC)c(NC(=O)CC2Oc3ccc(C)cc3NC2=O)c1 (configuration not stated) returned Hedgehog 4.2.
Screening COc1ccc(/C=C/C(=O)c2c(O)cc(OC)cc2OC)cc1 returned Hedgehog 8.6.
Screening O=C(NCCSc1c(-c2ccccc2)[nH]c2ccccc12)c1cc2ccccc2oc1=O returned Hedgehog 7.0.
`CCn1c(SCC(=O)N2CCCc3ccccc32)nc2c(c1=O)SC(C)C2` (configuration not stated) gave Hedgehog 5.2.
Screening COCCn1c(CN(Cc2ccccc2)Cc2ccccc2)nc2c1c(=O)n(C)c(=O)n2C returned Hedgehog 8.4.
For CCN(C(=O)c1cc2c(s1)-c1ccccc1S(=O)(=O)C2)c1cc(OC)ccc1OC the results were Hedgehog 5.2.
For O=C(Cn1cnc2c(nnn2-c2ccccc2)c1=O)NCc1ccco1 the results were Hedgehog 9.1.
`Cc1ccc(C)c(N2CCN(C(=O)Cn3ncn4cccc4c3=O)CC2)c1` gave Hedgehog 8.7.
CC(C)C[C@@H]1NC(=O)[C@H](Cc2ccccc2)N(C)C(=O)[C@H](C)NC(=O)c2ccccc2NC(=O)[C@H](Cc2ccc(O)cc2)N(C)C1=O was read as Hedgehog 6.9.
For COc1cc(C)cc(C(=O)O)c1C1=C(O)c2cccc(O)c2C(=O)C1=O the results were Hedgehog 12.1.
COc1ccc(C2CC(c3cccc(C)c3)n3ncnc3N2)cc1 (configuration not stated) was read as Hedgehog 6.7.
For COc1cc(C2c3c(oc4ccccc4c3=O)C(=O)N2c2ccc(C)cn2)ccc1O (configuration not stated) the results were Hedgehog 12.5.
Screening Cc1ccccc1N1CCN(S(=O)(=O)c2nnc(NC(=O)CC(C)C)s2)CC1 returned Hedgehog 1.8.
Screening CC(C)[C@H](NC(=O)N1c2ccccc2NC(=O)[C@@H]1C(C)C)C(=O)N[C@H](C(=O)O)c1ccccc1 returned Hedgehog 4.9.
Screening COc1ccc(NC(=O)c2ccc(NC3=NC4CS(=O)(=O)CC4S3)cc2)cc1 (configuration not stated) returned Hedgehog 5.1.
For COc1cccc2c(=O)n(CC(=O)N3CCc4ccccc43)ccc12 the results were Hedgehog 9.5.
For CSC1=NCCN1C(=O)C(C)Oc1ccccc1 (configuration not stated) the results were Hedgehog 0.0.
CC1(C)CC(=O)c2sc(NC(=O)c3ccc4ncsc4c3)nc2C1 was read as Hedgehog 4.6.
CC1(C)C=Cc2cc(-c3coc4cc(O)cc(O)c4c3=O)cc(O)c2O1 was read as Hedgehog 3.4.
`O=c1ccoc2ccccc12` gave Hedgehog 6.9.
CCOc1ccc(C2CC(c3ccccc3C)n3ncnc3N2)cc1 (configuration not stated) was read as Hedgehog 12.5.
Cc1cc(C)c2c(n1)SCC(=O)N2CC(=O)Nc1ccccc1Cl was read as Hedgehog 11.1.
For O=C(Nc1nnc(S(=O)(=O)N2CCOCC2)s1)c1ccccc1Br the results were Hedgehog 9.1.
For Cc1ccc(OCCn2c(C3CC(=O)N(Cc4ccccc4)C3)nc3ccccc32)cc1 (configuration not stated) the results were Hedgehog 3.5.
For Cc1noc(/C=C/N(C)C)c1S(=O)(=O)N1CCCC(C(=O)NCc2ccco2)C1 (configuration not stated) the results were Hedgehog 9.7.
CC1CCCCN1S(=O)(=O)c1coc(C(N)=O)c1 (configuration not stated) was read as Hedgehog 20.8.
CC(C)OC(=O)c1nnc(Cc2ccc(Cl)cc2)o1 was read as Hedgehog 20.0.
`COc1cc(C2OCC3C(c4ccc(OC5OC(CO)C(O)C(O)C5O)c(OC)c4)OCC23)ccc1O` (configuration not stated) gave Hedgehog 5.1.
Cc1c(C(=O)NCC2CCCO2)sc2nc(-c3ccccc3)cn12 (configuration not stated) was read as Hedgehog -16.6.

A section from the list above, as a working copy:
For O=C(Nc1nnc(S(=O)(=O)N2CCOCC2)s1)c1ccccc1Br the results were Hedgehog 9.1.
For Cc1ccc(OCCn2c(C3CC(=O)N(Cc4ccccc4)C3)nc3ccccc32)cc1 (configuration not stated) the results were Hedgehog 3.5.
For Cc1noc(/C=C/N(C)C)c1S(=O)(=O)N1CCCC(C(=O)NCc2ccco2)C1 (configuration not stated) the results were Hedgehog 9.7.
CC1CCCCN1S(=O)(=O)c1coc(C(N)=O)c1 (configuration not stated) was read as Hedgehog 20.8.
CC(C)OC(=O)c1nnc(Cc2ccc(Cl)cc2)o1 was read as Hedgehog 20.0.
`COc1cc(C2OCC3C(c4ccc(OC5OC(CO)C(O)C(O)C5O)c(OC)c4)OCC23)ccc1O` (configuration not stated) gave Hedgehog 5.1.
Cc1c(C(=O)NCC2CCCO2)sc2nc(-c3ccccc3)cn12 (configuration not stated) was read as Hedgehog -16.6.

(next part)
For O=C1OC(=O)c2c(Br)c(Br)c(Br)c(Br)c21 the results were Hedgehog 0.0.
`CCOc1ccc(NC(=O)CCC(=O)N2CCSc3ccccc32)cc1` gave Hedgehog 12.5.
`COCCCNC(=O)Cn1cc2c(n1)CCCCC2` gave Hedgehog 25.0.
CCCCc1cc(=O)oc2cc(OCC(=O)N3C[C@H]4C[C@@H](C3)c3cccc(=O)n3C4)ccc12 was read as Hedgehog 4.9.
`CC(=O)OCC(=O)C1(O)CCC2C3CCC4CC(O)CCC4(C)C3C(=O)CC21C` (configuration not stated) gave Hedgehog 6.9.
Cc1cc(OC(C)C(=O)N2C[C@H]3C[C@@H](C2)c2cccc(=O)n2C3)c2c(C)c(C)c(=O)oc2c1 (some centres not stated) was read as Hedgehog 0.0.
`COc1ccc(C2N(c3cc(Cl)ccc3OC)C(=O)C3CCCN32)c(OC)c1` (configuration not stated) gave Hedgehog 8.7.
CCCCn1c(CN2CCN(C(=O)c3ccco3)CC2)nc2c1c(=O)n(C)c(=O)n2C was read as Hedgehog 12.8.
CC(=O)Nc1ccccc1C was read as Hedgehog 5.4.
`Cc1ccc2oc(=O)c3cnn(CC(=O)N4CCCCC4C)c3c2c1` (configuration not stated) gave Hedgehog 9.5.
Screening CCOC(=O)N1CCN(C(=O)CSc2nc3c(cnn3-c3ccc(C)cc3)c(=O)[nH]2)CC1 returned Hedgehog 5.2.
`CC1Cc2nc(SCC(=O)c3ccccc3)n(Cc3ccccc3)c(=O)c2S1` (configuration not stated) gave Hedgehog 1.8.
For CCn1cc(C(=O)NCCCOC)c(=O)c2cc(S(=O)(=O)N(C)C3CCCCC3)ccc21 the results were Hedgehog 12.5.
CCN(CCN(C)C)C(=O)Cn1ncc2c1-c1cc(C)ccc1OC2 was read as Hedgehog 12.5.
For CCCc1cc(=O)oc2c3c(cc(OCC(=O)NCCN4CCOCC4)c12)OC(C)(C)CC3 the results were Hedgehog 7.2.
Screening COc1ccc(OC)c(NC(=O)c2ccc(NC3=NC4CS(=O)(=O)CC4S3)cc2)c1 (configuration not stated) returned Hedgehog 6.8.
Screening CCCSCCCNC(=O)Cn1cc2c(n1)CCC(C)C2 (configuration not stated) returned Hedgehog 8.7.
`CCCc1cc(=O)oc2c3c(cc(OCC(=O)NCc4ccccn4)c12)OC(C)(C)CC3` gave Hedgehog 3.5.
`COc1ccc(CCNC(=O)c2cc(-c3ccccc3)c(N3CCOCC3)s2)cc1OC` gave Hedgehog 0.0.
`CC(C)Cc1cc(C(=O)Nc2cc(Cl)ccc2Cl)no1` gave Hedgehog 6.4.
COc1ccc(OC)c(NC(=O)C2CCCN(S(=O)(=O)c3cccc4cccnc34)C2)c1 (configuration not stated) was read as Hedgehog -6.3.
Screening Cc1ccc(NC(=O)CCS(=O)(=O)c2ccc3nc(C)sc3c2)c(C)c1 returned Hedgehog -0.9.
`Cc1ccc(C)c(N2CCN(S(=O)(=O)c3cc4c(cc3Cl)NC(=O)CO4)CC2)c1` gave Hedgehog 14.6.
Screening CC(Oc1ccc2c(c1)c1ccnc3c4ccccc4c(=O)n2c13)C(=O)NCCN1CCOCC1 (configuration not stated) returned Hedgehog 3.5.
Screening OC1C2COC(O2)C2OC(c3ccccc3)OC12 (configuration not stated) returned Hedgehog 5.2.
`COc1ccccc1CCNC(=O)CCn1c(=O)oc2ccccc21` gave Hedgehog -0.9.
Cc1ccc(O)c(N)c1 was read as Hedgehog 10.7.
COc1cccc(C(c2sc3nc(C)nn3c2O)N2CCN(c3ccccc3F)CC2)c1 (configuration not stated) was read as Hedgehog 7.0.
CCCn1cc(SCC(=O)NCc2ccc3c(c2)OCO3)c2ccccc21 was read as Hedgehog 2.7.

Only part of the results is shown (hit frequency here may not be typical).
